Rce1 inh – inhibitors of yeast Ras-converting enzyme | Q03530 | yeast membranes, quenched prenylated peptide cleavage fluorescence | calls only | 290,000 compounds, 0.27% hits;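 active = fall in fluorescence gain of 50% or more versus controls, with final raw signal at or below 3038400; inconclusive = same 50% fall but final raw signal above 3038400; inactive = fall in fluorescence gain under 50%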;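 note: plate controls were neutral control wells for no effect and wells lacking membranes for full effect; tested at 10 µM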
Target sequence (Q03530 whole entry, looked up): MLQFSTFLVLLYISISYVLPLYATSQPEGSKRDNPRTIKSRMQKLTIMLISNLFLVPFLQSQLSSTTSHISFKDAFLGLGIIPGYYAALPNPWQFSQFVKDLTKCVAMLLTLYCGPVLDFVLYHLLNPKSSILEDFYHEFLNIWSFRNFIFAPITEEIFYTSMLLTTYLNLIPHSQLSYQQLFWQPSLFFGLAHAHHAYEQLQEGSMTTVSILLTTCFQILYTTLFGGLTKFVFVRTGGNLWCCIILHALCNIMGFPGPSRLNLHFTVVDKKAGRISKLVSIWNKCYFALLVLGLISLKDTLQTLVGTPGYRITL
CSC inhib – cancer stem cell inhibition; cancer stem cell-like cells viability, luminescence; inhibition, % at 7.5 µM; 300,000 compounds, 1.1% hits;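 active = mean at 75% or more and at least half the replicates too; inconclusive = mean and replicates disagree; tested in HMLE shEcad cells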;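 note: 0% = median of negative and 100% = median of positive control wells; the first replicate is given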
Yeast UUG start – yeast start codon fidelity modulation; S. cerevisiae UUG-firefly luciferase reporter, luminescence/redox ratio; activity score, % at 18.7 µM; 350,000 compounds, 0.13% hits; AID 602363;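 active = replicate mean at a twofold rise or more, about +100% in these data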;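 note: firefly luciferase made from a UUG start codon reports start codon fidelity; reporter light over untreated wells divided by growth signal over untreated wells; some hits fall short of that in this replicate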
eIF4H inh – inhibitors of RNA binding by human eIF4H; Q15056; eIF4H fluorescence polarization binding assay; inhibition, % at 35 µM; 290,000 compounds, 0.94% hits; AID 2012;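 active = 50% or more with normal probe brightness, or confirmed in later tests; inconclusive = above 50% with abnormal brightness, or retests that disagree; inactive = below 50% or failed in later tests; about a fifth of its hits are not listed in these tables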;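 note: calls also rest on retests at 20 µM and on dose response follow-up; 0% = protein and probe with vehicle and 100% = probe without protein; strong numbers were not always called active; many hits fall short of the cut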
MT1-MMP act inh – inhibitors of human MT1-MMP activation; P50281; HT1080 RFP-PRO-GFP cells, GFP/RFP ratio fluorescence, overnight; percent of plate control window, DMSO zero; GFP/RFP ratio change, % at 20 µM; 360,000 compounds, 0.061% hits;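 active = GFP/RFP ratio change of at least 30% with cell ATP level not reduced by more than half and red fluorescence within 50% of control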; note: strong numbers were not always called active
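Compound: 20 µM single dose, 1% DMSO / System: HT1080 RFP-PRO-GFP cells / Controls: DMSO and RFP-L50D-GFP cell wells / Read-out basis: GFP/RFP fluorescence ratio / Schedule: overnight compound exposure at 37 °C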
HIV Env fusion – HIV envelope-mediated fusion inhibition; AID 651610; inhibition, % at 12.3 µM; HeLa-JRFL Env/CEM21 cell fusion, luciferase; 360,000 compounds, 1.1% hits;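 active = mean replicate inhibition score of at least 50 and every replicate individually at or above 50; inconclusive = only one of the two criteria met; inactive = mean below 50 and not all replicates reaching 50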;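 note: 0% = plate neutral controls and 100% = maraviroc near 300 nM; one replicate is shown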
PABP FP inh – PABP-poly(A) binding inhibition; 290,000 compounds, 1% hits; P11940; inhibition, % at 35 µM; PABP-poly(A) RNA binding, fluorescence polarization;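 active = 50% or more with normal probe brightness, or confirmed in later tests; inconclusive = above 50% with abnormal brightness, or retests that disagree; inactive = below 50% or failed in later tests; about a fifth of its hits are not listed in these tables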;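 note: calls also rest on retests at 20 µM and on dose response follow-up; controls were probe without protein and protein plus probe with vehicle; some compounds called inactive have numbers as strong as hits; many hits fall short of the cut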
Target sequence (P11940 whole entry, looked up): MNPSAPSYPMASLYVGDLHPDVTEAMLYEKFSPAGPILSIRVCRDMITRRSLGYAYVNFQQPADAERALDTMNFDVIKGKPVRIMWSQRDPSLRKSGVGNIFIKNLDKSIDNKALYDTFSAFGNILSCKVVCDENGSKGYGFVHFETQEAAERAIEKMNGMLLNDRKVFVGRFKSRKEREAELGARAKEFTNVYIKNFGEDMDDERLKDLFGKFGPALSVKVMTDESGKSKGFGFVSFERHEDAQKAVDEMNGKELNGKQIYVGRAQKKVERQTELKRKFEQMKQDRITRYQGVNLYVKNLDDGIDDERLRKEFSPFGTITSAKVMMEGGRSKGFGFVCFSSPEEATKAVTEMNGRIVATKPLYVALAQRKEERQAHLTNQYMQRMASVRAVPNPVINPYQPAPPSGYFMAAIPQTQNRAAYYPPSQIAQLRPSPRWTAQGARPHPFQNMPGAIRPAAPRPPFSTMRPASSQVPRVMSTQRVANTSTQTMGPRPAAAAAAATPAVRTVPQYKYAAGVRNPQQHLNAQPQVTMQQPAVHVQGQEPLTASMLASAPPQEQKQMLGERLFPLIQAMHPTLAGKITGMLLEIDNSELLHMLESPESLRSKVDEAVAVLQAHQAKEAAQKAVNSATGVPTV
eIF4H inh retest – further read-out of eIF4H inh, marked with its call; inhibition, %; compound at 20 µM; confirmation average;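 mean of two retest wells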
PABP FP inh retest – second read-out of PABP FP inh, no call of its own (marks repeat the call); inhibition, %; compound at 20 µM; confirmation repeats;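 mean of two retest wells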
MT1-MMP act inh RFP – further read-out of MT1-MMP act inh, marked with its call; RFP signal change, %; measured here: RFP expression control read;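 0 = vehicle wells; hits needed this value within 50% of zero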
The depositor's hits bear a star; i = inactive; ? = inconclusive; nt = no result given; & = joins results of further samples.

SMILES | Rce1 inh | CSC inhib | Yeast UUG start | eIF4H inh | MT1-MMP act inh | MT1-MMP act inh RFP | HIV Env fusion | PABP FP inh | others
CC(=O)NC1=NN(C(C)=O)C(C)(c2cccnc2)S1 (stereo unspecified) | i | -5 | -15 | -1 | 1 | 3 | 8 | -9
Clc1cccc(Cl)c1NC1=NCCC1 | i | 23 | -19 | -2 | -1 | -4 | 1 | 3
CNc1nn(-c2cccc(Cl)c2)nc1N | i | -10 | -20 | -10 | 28 | 45 | nt | -1
CC(C)COC(=O)c1nnsc1NC(=O)Nc1ccccc1 | i | -7 | -5 | 14 | 0 | -11 | 21 | 9
COc1ccc2cc(CCN3C(=O)c4ccccc4C3=O)c(=O)[nH]c2c1 | i | 4 | -26 | -4 | 7 | 3 | -17 | 2
CC(C)Oc1ccc(C(=O)Nc2ccc(Cl)c(S(=O)(=O)Nc3ccc(Cl)cc3)c2)cc1 | i | 2 | -9 | -2 | -28 | -42 | 16 | 7
COc1cc(NC2c3ncccc3C(=O)N2Cc2ccco2)cc(OC)c1 (stereo unspecified) | i | nt | -4 | -5 | 3 | -1 | 60* | 9
CCOC(=O)c1ccc[n+]([O-])c1 | nt | nt | -9 | nt | 1 | 2 | 1 | nt
CC(C)NC(=O)Nc1cccc2c1O[C@H](CN(C)C(=O)NC(C)C)[C@@H](C)CN([C@H](C)CO)C2=O | nt | nt | -10&2 | nt | 1 | 6 | 11 | nt
CCCc1cc(C(=O)Cc2nc3ccccc3s2)c(O)cc1O | i | 1 | nt | 14 | -6 | -4 | nt | 6
Cc1ccccc1N1CCN(C(=O)CN2C(=O)c3ccccc3C2=O)CC1 | i | -5 | 0 | 10 | -2 | 0 | nt | 65 | eIF4H inh retest=3;PABP FP inh retest=11
O=C(NCc1ccco1)c1ccc(CNc2c(N3CCCCC3)c(=O)c2=O)cc1 | i | 14 | -9 | 8 | 0 | 3 | 17 | 3
CCOc1ccc(N(CC(=O)NC(C)CC)S(C)(=O)=O)cc1 (stereo unspecified) | i | 12 | -16 | -2 | 0 | 4 | 5 | 0
CN1CCN(c2nc(NCc3ccco3)nc(N)c2[N+](=O)[O-])CC1 | i | -3 | nt | 1 | 1 | 1 | -10 | 1
N=c1ccn(Cc2cccc(Cl)c2)cc1 | i | 15 | -26 | 0 | 3 | -17 | nt | -2
CCn1c(SCc2ccc(C)cc2)nnc1-c1cnccn1 | i | -16 | -16 | -2 | 0 | 1 | 8 | 2
c1ccc(Cn2nnc3c(Nc4ccc5c(c4)OCO5)nc(C4CC4)nc32)cc1 | i | 13 | nt | 7 | -1 | -10 | ? | 11
Cc1cc(C)nc(SCc2nnc(SCc3ccc([N+](=O)[O-])cc3)n2Cc2ccco2)n1 | i | nt | nt | -7 | -4 | -6 | 31 | -14
Cc1cc(C)cc(-n2c(SCC(=O)NCc3ccc4c(c3)OCO4)nc3ccccc3c2=O)c1 | i | 7 | nt | -7 | -2 | -3 | ? | -7
Cc1noc(C)c1CSc1nnc(-c2cc(Cl)ccc2Cl)n1N | i | 10 | -7 | -2 | 4 | -2 | -44 | -3
COc1ccc(CNC(=O)CN2C(=O)CC(c3ccccc3)=Nc3ccccc32)cc1 | i | -4 | nt | -12 | 0 | 5 | -7 | -12
CC(C)(C)c1nnc(NC(=S)Nc2ccccc2)s1 | i | 5 | nt | ? | 10 | 4 | -18 | ?
O=C(O)c1cnn(-c2ccccc2)c1-c1ccccc1 | i | -16 | -15 | -1 | -4 | -5 | -17 | 0
Cc1ccc(F)c(CNC(=O)C2CCC(=O)N(CCCN3CCCC3=O)C2)c1F (stereo unspecified) | i | -7 | 10 | 3 | 1 | 4 | -4 | -2
CC(C)c1ccc(O)c(C(=O)c2cnn(-c3ccccc3)c2)c1 | i | 68 | -7 | nt | 3 | -1 | 0 | nt

Next section
SMILES | Rce1 inh | CSC inhib | Yeast UUG start | eIF4H inh | MT1-MMP act inh | MT1-MMP act inh RFP | HIV Env fusion | PABP FP inh | others
COc1cccc(-c2nc3cc(C)ccc3o2)c1 | i | 5 | -36 | 36 | -6 | 2 | -311 | -5
CCOc1ccnc2c1c(=O)n(Cc1cc(OC)cc(OC)c1)c(=O)n2C | i | -2 | -9 | nt | -1 | 2 | 27 | nt
CC(=O)Nc1ccc(S(=O)(=O)NCCCc2ccccc2)cc1 | i | nt | -10 | 15 | 3 | -4 | -6 | 11
CCN(CC)C(=O)c1[nH]cnc1C(=O)NCc1ccccc1 | nt | 6 | -15 | nt | -1 | 4 | 18 | nt
Cc1nc2ccccc2c(=O)n1-c1ccc(NS(=O)(=O)c2ccc(F)cc2F)cc1 | i | 4 | -2 | nt | 3 | 0 | -26 | nt
COCCNC(=O)C1(C)CCN(C(=O)c2ccc(F)c(C)c2)C1 (stereo unspecified) | nt | nt | -16 | nt | 1 | 4 | 2 | nt
COc1ccc2c(c1OC)C(=O)N(C(C)C(=O)O)C2=O (stereo unspecified) | i | -8 | -14 | -1 | 11 | 4 | -39 | -7
N#CC1=C2SCCN2C(=O)C(C#N)C12CCCCC2 (stereo unspecified) | i | 3 | -10 | -4 | -3 | 3 | -33 | -3
CCn1ncc(Cl)c1C(=O)Nc1ccncc1 | i | 6 | -17 | 16 | -7 | -4 | nt | 10
COc1ccc(Nc2cc(Nc3ccccc3)ncn2)cc1 | i | 7 | -9 | 2 | 1 | -1 | -33 | -2
COc1cc2c(cc1OC)-c1cc(NC3CCCCC3)nc(=O)n1CC2 | i | -8 | 0 | -1 | 4 | 4 | nt | 33
O=C(/C=C/c1ccccc1)NCCC1=CCCCC1 | i | 3 | -13 | -7 | 4 | 1 | -7 | -4
Cc1cc(NC(=O)CSc2nc(Cc3ccc(O)cc3)c(C)[nH]2)no1 | i | 1 | -21 | -3 | 5 | 2 | -4 | 5
Cc1cn([C@H]2C[C@H](O)[C@@H](CNCc3cnc(N4CCOCC4)s3)O2)c(=O)[nH]c1=O | nt | nt | -1 | nt | 0 | 4 | -32 | nt
c1ccc(-c2ccncc2)nc1 | nt | -9 | -16 | nt | -7 | 0 | -1 | nt
COc1ccc(CN(C(=O)c2cc3ccccc3oc2=O)C2CCCC2)cc1 | nt | -1 | -16 | -8 | 6 | -8 | 24 | -5
COc1ccc2c(=O)c3c(=O)n(-c4ccccc4)c(-c4ccco4)nc3oc2c1 | nt | 0 | nt | 7 | 1 | 5 | -35 | 6
C[C@H](CO)N1C[C@H](C)[C@@H](CN(C)C(=O)Nc2ccc(C(F)(F)F)cc2)Oc2ccc(NC(=O)Cn3cnnn3)cc2C1=O | nt | -1 | 27&-22 | nt | -1 | 2 | -3 | nt
O=C(NC1=NCCS1)c1cc(-c2ccc(F)cc2)nc2ccccc12 | i | 14 | nt | -5 | -1 | -2 | 12 | 6
CS(=O)(=O)Nc1ccc(C(=O)Nc2ccc(S(=O)(=O)N3CCCCC3)cc2)cc1 | i | -9 | -1 | -4 | -1 | -12 | -9 | -7
O=C(Nc1ccccc1F)c1ccccc1C(=O)Nc1ccccc1F | i | -8 | -11 | nt | 3 | 3 | -8 | nt
COC(=O)CSc1nnc(COc2cccc3ccccc23)o1 | i | 8 | -6 | 0 | 1 | 0 | 7 | 8
C[C@H](CO)N1C[C@H](C)[C@H](CN(C)Cc2ccncc2)Oc2cc(-c3ccccc3F)ccc2S1(=O)=O | nt | nt | 2&-11&-16 | nt | -8 | -8 | 1 | nt
O=C(O)c1ccccc1-c1ccccc1C(=O)Nc1ccccc1-c1ccccc1 | i | -7 | -2 | 8 | -3 | 1 | 7 | -3
COc1cccc(CNC(=O)CN(C)S(=O)(=O)c2cnc[nH]2)c1 | i | -8 | -2 | -6 | 0 | -1 | nt | -4

Already shown: two of the compounds above.
SMILES | Rce1 inh | CSC inhib | Yeast UUG start | eIF4H inh | MT1-MMP act inh | MT1-MMP act inh RFP | HIV Env fusion | PABP FP inh | others
COc1cccc(-c2nc3cc(C)ccc3o2)c1 | i | 5 | -36 | 36 | -6 | 2 | -311 | -5
CCOc1ccnc2c1c(=O)n(Cc1cc(OC)cc(OC)c1)c(=O)n2C | i | -2 | -9 | nt | -1 | 2 | 27 | nt

Further records.
SMILES | Rce1 inh | CSC inhib | Yeast UUG start | eIF4H inh | MT1-MMP act inh | MT1-MMP act inh RFP | HIV Env fusion | PABP FP inh | others
CCc1ccnc(NS(=O)(=O)c2ccc3c(c2)CCO3)c1 | i | 1 | -15 | -13 | 1 | -1 | 0 | -8
O=C(Nc1ncc2c(n1)CC(c1ccco1)CC2=O)c1ccco1 (stereo unspecified) | i | -12 | -14 | 22 | 1 | 4 | -9 | 34
O=C(CSc1nnc(-c2cccnc2)n1Cc1ccco1)N1c2ccccc2Sc2ccccc21 | nt | nt | -21 | 8 | -4 | -2 | -164 | 13
CC1(C)OC2OC(COC(=O)c3ccccc3)C3OC(C)(C)OC3C2O1 (stereo unspecified) | i | -12 | -4 | -5 | 0 | 1 | 14 | 5
CCC(Oc1ccc(Cl)cc1)C(=O)N1CC(=O)Nc2ccccc21 (stereo unspecified) | i | 13 | -11 | -13 | -1 | -2 | -19 | 3
Cc1ccc(NC(=O)Nc2ccc3c(c2)CCC3)cc1C | i | 2 | 4 | -8 | 3 | 6 | -29 | 1
CCSc1nc2c(c(=O)n1CC)SC(C)C2 (stereo unspecified) | i | nt | -10 | -2 | -1 | 2 | nt | -10
O=C(C=Cc1ccccc1)CC(c1ccccc1)N1CCOCC1 (stereo unspecified) | nt | nt | -10 | nt | 5 | 3 | -75 | nt
Cc1cccc(C)c1NC(=O)CN1CCN(C(=O)CCC(=O)N2CCC(c3ccccc3)=N2)CC1 | nt | nt | -10 | nt | 0 | 4 | 21 | nt
CC(=O)Nc1cccc(/C(C)=N/NC(=O)c2ccc(NS(=O)(=O)c3cccs3)cc2)c1 | i | -4 | -3 | 1 | 2 | 5 | -16 | 13
Cc1ccc(C)c(OCc2nnc(SCC(=O)NCc3ccc4c(c3)OCO4)o2)c1 | i | 14 | nt | -4 | 1 | -1 | 6 | 6
CCN(CC)C(=O)C1=C(C)N(CCC2=CCCCC2)C(=O)C(CC(=O)NCc2cccs2)C1 (stereo unspecified) | nt | nt | 8 | nt | -2 | 2 | 8 | nt
S=c1[nH]c2ccc(Cl)cc2[nH]1 | i | 3 | -25 | 4 | 0 | 4 | nt | -17
CCC(C)NC(=O)c1c(F)c(F)c(F)c(F)c1F (stereo unspecified) | i | -4 | -14 | -9 | 3 | 4 | nt | 13
CC1CN(CCOc2ccccc2C(C)C)CC(C)O1 (stereo unspecified) | i | nt | -9 | 26 | -2 | 0 | -6 | 4
CN(CC(=O)Nc1ccc(F)cc1)C(=O)CN1C(=O)NC2(CCCCC2)C1=O | nt | -8 | -9 | nt | 0 | 3 | -9 | nt
O=C(NCc1ccccc1C(F)(F)F)C12CN(Cc3ccccc3)CC1C(c1ccc([N+](=O)[O-])cc1)=NO2 (stereo unspecified) | i | 16 | -20 | 11 | 0 | -11 | -11 | 6
NC(=O)NC(Cc1ccccc1)C(=O)NCC1(N2CCCCC2)CCCCC1 (stereo unspecified) | i | nt | -2 | 3 | 0 | 0 | -14 | 10
O=C(Nc1ccc2c(c1)OCO2)C1CCN(S(=O)(=O)c2cccc3cccnc23)CC1 | i | -23 | -3 | -12 | -15 | -13 | 10 | -5
Cc1c(NC(=O)COC(=O)C2(c3ccccc3F)CCCC2)c(=O)n(-c2ccccc2)n1C | i | nt | nt | -8 | 0 | -2 | 0 | -8
O=C(NCc1cccnc1)c1ccc(NS(=O)(=O)c2cccc([N+](=O)[O-])c2)cc1 | nt | -13 | -8 | nt | 2 | 4 | 1 | nt

Compound activity as filed in PubChem.
